Bioassay records from PubChem.
BJeLR viability: BJeLR cell viability loss; BJeLR (HRASV12) viability, CellTiter-Glo ATP luminescence, 48 h; reference of the scale not given here; inhibition, % (concentration not given with the values); 300,000 compounds, 0.17% hits; AID 1554;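 active = replicate mean above 50%; inconclusive = above 50% but judged a plate artefact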;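 also: 50 nL library stock added to about 25 µL; numbers are from one replicate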
Mtb hypoxia inh: Mtb hypoxia fluorescent reporter inhibition; M. tuberculosis hypoxia-regulated fluorescent reporter, fluorescence; fluorescence inhibition, % (test concentration not listed); 300,000 compounds, 0.1% hits; AID 1159583;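 active = 35 to 45% if threefold the growth effect, above 45% if 1.5-fold the growth effect; inactive = the rest, general growth blockers included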;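 also: wells of about 50 µL received 100 nL stock; 0% = vehicle wells and 100% = reference inhibitor wells; whole bacteria with a GFP reporter of the hypoxia response; strong numbers were not always called active; many hits fall short of the cut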
ugtP null kill: compounds lethal to S. aureus RN4220 ugtP deletion mutant | OD600 growth, 16 h; some inactives read as strong as hits | growth inhibition, % (concentration not given with the values) | 330,000 compounds, 0.54% hits | AID 1259309;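 active = z-score under -3 and OD600 up to 0.15 on both plates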;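 also: plate controls were untreated wells for no effect and antibiotic for full effect; wells of about 80 µL received 100 nL stock; the first replicate is given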
Sa RN4220 lethal: S. aureus RN4220 growth inhibition. OD600, 16 h. inhibition, % (concentration not given with the values). 330,000 compounds, 0.33% hits;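 active = z-score of -3 or lower and OD600 up to 0.18 on both plates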;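 also: plate controls were untreated cells for no effect and reference antibiotic for full effect; stock transfer was 100 nL into about 80 µL; one replicate is shown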
Bead autofluor: compound fluorescence in toxin protease inhibitor counterscreen | compound autofluorescence counterscreen, microsphere flow cytometry; active compounds read high | fluorescence intensity (test concentration not listed) | 360,000 compounds, 3.1% hits | AID 624483;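 active = at least 3 SD above the mean of all compounds, about 16000 in these data; inconclusive = too few beads counted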;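 also: 100 nL of 1 mM stock went into each well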
PrP UTR inh: suppresses PrP 5' UTR mRNA reporter expression. cell-based PrP 5' UTR mRNA reporter, plate reader. inhibition, % (concentration not given with the values). 340,000 compounds, 0.35% hits. AID 488862;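 active = every replicate at 50% or more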;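 also: 0 = median of the neutral control wells; tested in H4 reporter cells; numbers are from one replicate; inactives centre near -14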
Mtb hypoxia inh growth: recorded beside Mtb hypoxia inh, whose call it bears; growth inhibition, %; measured here: M. tuberculosis growth (absorbance);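 0% = vehicle and 100% = reference antibiotic; read after six days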
The depositor's hits bear a star; ? = inconclusive; . = no result given; & = joins results of further samples. Outcome played no part in choosing rows; about 4% have a hit in one of these screens.

SMILES | BJeLR viability | Mtb hypoxia inh | Mtb hypoxia inh growth | ugtP null kill | Sa RN4220 lethal | Bead autofluor | PrP UTR inh
CCOc1ccc(-c2c(C)n(-c3ccc(OCC)cc3)c3[n+]2CCCCC3)cc1 | 69.9* | . | . | -6.8 | 5.8 | 4022 | -10.0
COc1cc(C(=O)N2CCN(S(=O)(=O)c3ccc(C)cc3C)CC2)ccc1OCC(=O)N1CCOCC1 | . | -20.2 | -0.3 | -2.9 | -3.1 | 3683 | -11.5
COc1cccc2cc(C(=O)NCc3ccccc3Cl)c(=O)oc12 | 3.5 | 7.2 | 1.0 | 1.5 | 4.0 | 3198 | -56.1
O=c1c(OC2OC(CO)C(O)C(O)C2OC2OC(CO)C(O)C(O)C2OC2OC(CO)C(O)C(O)C2O)c(-c2ccc(O)c(O)c2)oc2cc(O)cc(O)c12 (stereo not drawn) | . | . | . | 0.9 | 5.1 | 5904 | -25.2
CCOc1ccccc1NC(=O)C1CCCN1C(=O)c1cccs1 (stereo not drawn) | . | 10.9 | 4.4 | 0.7 | 5.9 | 3747 | -23.5
Cn1c(=S)[nH]c2scc(-c3cccs3)c2c1=O | -5.2 | . | . | 58.4 | 51.8 | 4095 | -3.9
Nc1nc(SCC(=O)NCCCO)nc2sc3c(c12)CCC3 | 0.9 | 15.5 | 6.0 | 0.3 | 2.5 | 12802 | -11.6
Cc1ccccc1OCC(=O)Nc1ccc2c(c1)OCCO2 | 11.6 | 8.0 | -3.6 | 2.8 | 11.3 | 3497 | -65.7
O=C(Cn1nc(Cc2cccnc2)c2ccccc2c1=O)N1CCN(c2ccccn2)CC1 | . | . | . | 6.3 | 2.3 | 5507 | -3.3
COc1ccccc1C(=O)ON=C1c2ccccc2-c2ccccc21 | 1.7 | 2.1 | 8.5 | -5.9 | -9.8 | 2557 | -15.5
COc1ccc(CCN(C)C(=O)CN2C(=O)NC3(CCCc4ccccc43)C2=O)cc1OC (stereo not drawn) | -2.6 | -4.0 | 7.9 | -1.0 | -0.3 | ? | 16.0
C=Cn1c(P(=S)(N2CCOCC2)N2CCOCC2)cc2c1CCCC2 | 2.3 | 0.9 | 7.0 | 2.8 | 3.8 | 5642 | -13.9

Complete entries as entered above. Order of screens: BJeLR viability | Mtb hypoxia inh | Mtb hypoxia inh growth | ugtP null kill | Sa RN4220 lethal | Bead autofluor | PrP UTR inh
Cn1c(=S)[nH]c2scc(-c3cccs3)c2c1=O is listed as -5.2 | . | . | 58.4 | 51.8 | 4095 | -3.9
O=c1c(OC2OC(CO)C(O)C(O)C2OC2OC(CO)C(O)C(O)C2OC2OC(CO)C(O)C(O)C2O)c(-c2ccc(O)c(O)c2)oc2cc(O)cc(O)c12 (stereo not drawn) is listed as . | . | . | 0.9 | 5.1 | 5904 | -25.2
COc1ccccc1C(=O)ON=C1c2ccccc2-c2ccccc21 is listed as 1.7 | 2.1 | 8.5 | -5.9 | -9.8 | 2557 | -15.5
COc1cccc2cc(C(=O)NCc3ccccc3Cl)c(=O)oc12 is listed as 3.5 | 7.2 | 1.0 | 1.5 | 4.0 | 3198 | -56.1
COc1cc(C(=O)N2CCN(S(=O)(=O)c3ccc(C)cc3C)CC2)ccc1OCC(=O)N1CCOCC1 is listed as . | -20.2 | -0.3 | -2.9 | -3.1 | 3683 | -11.5

Additional structures
SMILES | BJeLR viability | Mtb hypoxia inh | Mtb hypoxia inh growth | ugtP null kill | Sa RN4220 lethal | Bead autofluor | PrP UTR inh
CCCCc1ccc(NC(=S)N2CCN(c3ncccn3)CC2)cc1 | -1.2 | 15.4 | -3.0 | 4.3 | 4.1 | 4570 | -5.8
O=C(N/C(=C\c1cccc([N+](=O)[O-])c1)C(=O)N1CCOCC1)c1ccco1 | -0.9 | 2.2 | 6.2 | 6.9 | 3.3 | 5121 | -18.5
CC(C)c1cc(C(N)=O)c(NC(=O)c2cccc(COc3ccc(Br)cc3)c2)s1 | -3.9 | -4.9 | -9.8 | -21.2 | -2.7 | 22076* | -110.2
Clc1ccc(CSc2nnc(-c3c[nH]c4ccccc34)o2)cc1 | 5.2 | 9.6 | 4.6 | 5.8 | 9.8 | 5865 | -20.8
Cc1ccccc1NC(=S)N(CCCN1CCOCC1)Cc1cccs1 | 0.3 | 13.2 | 0.4 | 13.6 | 3.9 | 2404 | -11.8
O=S(=O)(NCc1cccnc1)c1cccc2cccnc12 | -5.2 | 2.3 | 2.8 | -0.5 | 3.4 | 10696 | -63.7
CC(=O)Nc1cccc(N(C)S(C)(=O)=O)c1 | 1.6 | 7.6 | -1.4 | 9.7 | 4.3 | 5442 | -25.3
O=[N+]([O-])c1ncn(Cc2c(Cl)cccc2Cl)n1 | 0.8 | 17.7 | 23.1 | 25.7 | -8.5 | 2523 | -10.7
CC1OC(Oc2c(-c3cc(O)c(O)c(O)c3)oc3cc(O)cc(O)c3c2=O)C(O)C(O)C1O (stereo not drawn) | -2.2 | 16.0 | -3.6 | -3.9&-5.4 | 7.6&2.2 | 5229 | -23.2
O=C(O)CC1(CC(=O)NCc2cccc(Cl)c2)CCCCC1 | -1.6 | 5.5 | 6.1 | 9.2 | 2.3 | 4039 | -39.3
CC(Cc1cccs1)NC(=O)Nc1ccccc1 (stereo not drawn) | -0.5 | 0.7 | -3.4 | -1.9 | 3.3 | 8326 | -16.8
CCCCCc1cc(=O)oc2c(C(CCN3CCCCC3)c3cc(OC)c(OC)c(OC)c3)c(OC)cc(OC)c12 (stereo not drawn) | 1.8 | . | . | -46.4 | -4.1 | 4125 | -1.6
COc1ccc(CCNC(=O)CCn2c(SCC#N)nc3ccccc3c2=O)cc1OC | -2.8 | 15.1 | 0.9 | 0.6 | 2.0 | ? | -15.6
CNC(=O)OCCc1n(C)cc[n+]1C | -1.7 | -5.0 | -3.5 | -1.2 | 5.2 | 9197 | -8.2
Cc1ccc(C(C(=O)NC(C)(C)C)N(Cc2ccco2)C(=O)Cn2nnc(-c3cccs3)n2)cc1 (stereo not drawn) | -1.1 | 4.1 | -4.1 | 15.1 | 3.1 | 9403 | -29.2
CC(C)NC(=O)Cn1c(SCC(=O)NC2CCCC2)nc2ccccc21 | -15.9 | 8.6 | 2.4 | 2.9 | 2.7 | 6455 | -26.8
Cc1cccc(-c2nc3c(c(SCC(N)=O)n2)CCCC3)c1 | 1.6 | 20.9 | 5.2 | 1.8 | -5.9 | 3332 | -10.7
CCOC(=O)NN1C(=O)c2ccccc2NC1c1ccc(OC)cc1OC (stereo not drawn) | 2.4 | 6.5 | 7.2 | 4.5 | 2.2 | 3264 | -19.9
COc1ccc(Nc2cc(C(=O)NCCCN3CCOCC3)c3ccccc3n2)cc1OC | -8.2 | 1.5 | -2.7 | -2.1 | 0.4 | 8830 | -22.4
C=CCn1c2ccccc2c2n[nH]c(=S)nc21 | -3.3 | 8.4 | -6.0 | 17.8 | -1.4 | 3140 | -12.3
CCCCCn1c(-c2ccco2)nc2nc3ccccc3nc21 | -1.1 | 2.5 | 16.4 | -24.2 | 23.3 | 3398 | -10.5
CC1CCCN(c2c([N+](=O)[O-])c(=O)oc3ccccc23)C1 (stereo not drawn) | 1.4 | 6.2 | 4.6 | 0.7 | 0.4 | 23803* | -10.8
COc1ccc2nc3c(c(-c4ccccc4)c2c1)CCC3 | 8.9 | -1.7 | -1.4 | -5.5 | -0.1 | 4521 | -20.2
O=c1[nH]ncc(N2CCCCC2)c1Cl | -1.2 | 11.2 | 7.9 | 8.3 | 4.0 | 2077 | -16.4
O=C(COC(=O)c1ccc(O)cc1O)NC1CC1 | . | 3.1 | 4.8 | -0.2 | 3.3 | 5476 | -3.8
Cc1cc(C)c(S(=O)(=O)N2CCN(c3ccc([N+](=O)[O-])c(-n4nc(C)cc4C)c3)CC2)c(C)c1 | -10.7 | -0.1 | 17.9 | -17.2 | 2.7 | 11846 | 1.8
COc1ccc(CNC(=O)C2CCCN2S(=O)(=O)c2ccc(Cl)cc2)cc1 (stereo not drawn) | -4.4 | 3.0 | 9.8 | -4.1 | 2.0 | 10258 | -29.5
CC(C)[C@@H]1CC[C@@H](C)C[C@H]1OC(=O)C[n+]1cc(-c2ccc(Cl)cc2)n2c1CCCCC2 | 2.5 | . | . | 100.4* | 100.6* | 3684 | -47.9
CCOC(=O)c1c(C)c(C(=O)O)n(C)c1C | 2.4 | 5.6 | 4.0 | 1.9 | 3.2 | 11181 | -6.9
Cc1cccc(OC(=O)n2c(=S)oc3cc(Cl)ccc32)c1 | . | 10.8 | 4.0 | 4.9 | 8.9 | 2483 | 8.8
CCCCc1nc2ccccc2c(=O)n1-c1ccccc1[N+](=O)[O-] | 8.5 | 12.0 | 16.3 | 1.4 | 3.8 | ? | -13.8
CC(=O)Nc1nc(-c2cc([N+](=O)[O-])cs2)cs1 | . | 22.9 | 19.0 | 13.0 | 3.8 | 3229 | -9.1
N#Cc1ccccc1NC(=O)CNc1cc(S(=O)(=O)N2CCOCC2)ccc1NCC1CCCO1 (stereo not drawn) | . | 7.6 | -3.0 | 6.6 | 4.3 | 5003 | -8.1
CCCn1c(SCC(=O)Nc2ccc(OC)cc2)nnc1-c1ccncc1 | -3.3 | 15.4 | 6.9 | 5.3 | 2.5 | 8666 | -6.3
Cc1ccc(C(=O)COC(=O)c2cn(-c3ccccc3)nc2-c2ccccc2)cc1[N+](=O)[O-] | 3.1 | 3.2 | -8.9 | -17.8 | 6.6 | 2060 | -9.5
COc1ccc(CNC(=O)C2CC(c3ccc(OC)cc3)=NO2)cc1 (stereo not drawn) | -3.7 | -0.7 | 5.1 | 3.9 | 0.9 | 11085 | -21.7
COc1cccc(OC)c1NC(=O)C1CCCN1C(=O)Nc1cccc(Cl)c1 (stereo not drawn) | 1.7 | 6.1 | -0.8 | 3.7 | -5.8 | 3301 | -16.4
C=CCNC(=O)N1CCCC(C(=O)c2cccc(Cl)c2)C1 (stereo not drawn) | -8.4 | 12.9 | 5.3 | -6.7 | 4.4 | 2125 | -21.1
Cc1cc(Br)ccc1NC(=S)NCCc1ccccc1 | . | -6.0 | 1.5 | -4.3 | 1.2 | 4942 | -11.4
O=C(NC(=S)NCc1ccco1)c1cccc(Cl)c1 | 0.0 | . | . | . | . | 5557 | -1.6
CCOCCCNC(=O)c1ccc2c(c1)ncn2-c1cccc(C)c1 | 9.5 | -1.6 | -0.1 | -0.6 | 1.0 | 3896 | -8.4
Cc1ccc(C(=O)CSc2nnc(-c3cccnc3)n2N)cc1 | 13.5 | 0.0 | -4.8 | 3.6 | 3.6 | 15409 | -13.1
CCCCN=C1NC(=O)C(CC(=O)NCCc2ccc(OC)cc2)S1 (stereo not drawn) | -4.8 | -1.5 | 11.5 | 3.9 | 5.9 | 3051 | -16.0
Cc1cc([N+](=O)[O-])nn1CC(=O)N/N=C/c1ccccc1F | 1.1 | . | . | . | . | 3978 | -25.9
CCCCCC(=O)NC(=S)Nc1cccc(C(C)=O)c1 | -1.2 | . | . | . | . | 2694 | -34.4
COC(=O)c1ccccc1S(=O)(=O)N(Cc1cc2cc3c(cc2[nH]c1=O)OCO3)C1CCCCC1 | -7.7 | -13.3 | -0.5 | -10.6 | -1.0 | . | .
CC(C)c1ccc(NC(=S)NC2CC3C=CC2C3)cc1 (stereo not drawn) | 1.2 | 4.4 | 20.4 | 1.8 | -1.9 | 3889 | -81.8
Cc1ccc(OC(C)C(=O)Nc2ccccc2C(=O)N2CCN(C)CC2)cc1 (stereo not drawn) | 5.5 | 2.8 | 9.3 | 2.2 | 1.5 | 5525 | 2.3
CC(C)(C)c1ccc(C(=O)NNC(=O)c2ccc(Cl)cc2)cc1 | 1.9 | -4.3 | 3.3 | -0.8 | 2.7 | 2079 | -3.2
Cc1noc(C(=O)Nc2c(C)nn(Cc3ccccc3)c2C)c1Cl | -13.5 | -7.8 | -0.4 | -9.3 | -2.2 | 5263 | -17.4
COc1cc(C(C)=O)ccc1OCC(O)CN1CCN(c2ccccc2)CC1 (stereo not drawn) | 2.2 | -2.4 | 0.0 | -0.5 | 3.1 | 4043 | -19.6
Cc1cc(-c2ccc(S(=O)(=O)N3CCN(C)CC3)s2)on1 | 3.7 | -1.9 | 4.8 | 8.3 | 1.8 | 5686 | -29.0
Cn1c(CNc2ccccc2)nc2ccccc21 | 6.8 | 4.7 | 7.1 | -6.0 | -16.0 | 3025 | -81.4
CCOc1ccc(NC(=O)CC2S/C(=N/N=C3CCCCCC3)NC2=O)cc1 (stereo not drawn) | 0.6 | 11.0 | -13.8 | 11.5 | 3.2 | 5060 | 1.7
